Arbovirus inh: antivirals against arbovirus infection, primary screen, cell-based, full library, 10K replicate subset | inhibition, % at 10 µM | AID 1251, 2008 | hit rate 0.37% among 200,000 | arbovirus infection cell-based antiviral screen;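 active = inhibition from about 30%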;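 also: bluetongue infection of BSR cells; cell survival read as ATP light after 72 h; 0% = infected wells without compound and 100% = uninfected wells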
YopH inh: YopH tyrosine phosphatase inhibitors, primary screen, biochemical, fluorescence Ex485/Em525 | YopH tyrosine phosphatase [Yersinia enterocolitica] | inhibition, %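 (about 10 µM by stock and volumes)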 | hit rate 0.16% among 140,000;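 active = inhibition of 50% or more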;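 also: controls were vehicle for no effect and minimum signal wells for full effect; inactives centre near -20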
Mtb growth: M. tuberculosis H37Rv growth inhibitors, H37Rv strain (AID 1626) | inhibition, % at 10 µM, or IC50 in µM where a hit was titrated | M. tuberculosis H37Rv growth inhibition; higher % means a stronger effect | hit rate 0.95% among 220,000;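 active = confirmed in a dose series; inconclusive = inhibition above 80% but not taken into the dose series; inactive = below 80% or under 30% at every dose of the series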;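 also: bacteria incubated seven days before Alamar blue readout; 0% = bacteria only wells and 100% = bacteria with antibiotic wells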
RecA intein inh: Mtb RecA intein splicing inhibitors, primary screen, biochemical, fluorescence, HTS | Protein RecA (Mycobacterium tuberculosis (strain ATCC 25618 / H37Rv)), P9WHJ3 | cell-free RecA intein splicing | inhibition, %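 (about 9 µM by stock and volumes)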 | hit rate 0.75% among 290,000 | AID 2221, 2009; in the data active = inhibition above about 30%; inconclusive = no clear call, values can overlap the other calls;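 also: 0% = vehicle wells and 100% = reference inhibitor control wells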
Target sequence (P9WHJ3 whole entry, looked up): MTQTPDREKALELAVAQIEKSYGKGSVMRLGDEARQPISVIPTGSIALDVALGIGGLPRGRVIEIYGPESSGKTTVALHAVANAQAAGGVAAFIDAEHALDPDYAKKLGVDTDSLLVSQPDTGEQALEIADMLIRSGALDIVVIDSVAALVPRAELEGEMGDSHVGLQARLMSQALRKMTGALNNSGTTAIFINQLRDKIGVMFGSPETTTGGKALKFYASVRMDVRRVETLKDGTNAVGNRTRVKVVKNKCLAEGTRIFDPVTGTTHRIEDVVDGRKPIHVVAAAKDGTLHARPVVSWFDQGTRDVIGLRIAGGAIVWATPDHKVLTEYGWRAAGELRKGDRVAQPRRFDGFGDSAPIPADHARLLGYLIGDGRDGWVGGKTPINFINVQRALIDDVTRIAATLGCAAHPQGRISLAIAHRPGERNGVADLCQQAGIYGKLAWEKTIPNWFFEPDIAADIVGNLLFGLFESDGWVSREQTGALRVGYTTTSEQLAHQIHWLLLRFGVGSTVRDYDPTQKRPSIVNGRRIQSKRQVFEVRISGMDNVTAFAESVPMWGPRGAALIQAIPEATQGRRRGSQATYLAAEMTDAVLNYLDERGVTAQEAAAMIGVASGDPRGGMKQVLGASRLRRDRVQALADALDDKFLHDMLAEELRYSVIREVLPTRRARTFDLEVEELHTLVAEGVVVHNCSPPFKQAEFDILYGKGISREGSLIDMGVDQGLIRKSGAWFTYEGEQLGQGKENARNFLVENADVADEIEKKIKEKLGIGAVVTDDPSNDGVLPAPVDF
Mtb bLac sens: beta-lactam sensitization of Mtb H37Rv, H37Rv; hit rate 0.27% among 330,000; inhibition, % at 25 µM; M. tuberculosis H37Rv growth with meropenem, percent inhibition; hits of this screen are not shown here;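 active = about 74% or more and at least 40 points above the plate without the antibiotic, then above 30% in a dose series; inconclusive = first-round hits that could not be retested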;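 also: growth measured after seven days incubation then overnight dye step; 0% = bacteria only wells and 100% = bacteria with antibiotic; twin plates without the antibiotic show which effects depend on it; some results filed as inactive read as strong as hits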
Arbovirus inh repeat: further read-out of Arbovirus inh, marked with its call; inhibition, %; measured here: 10K subset replicate screen; many hits read low in the repeat;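 first of two repeat runs on a subset; 0% = infected and 100% = uninfected wells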
* hit, by the source's call; ? = inconclusive; nt = not tested or not shown.

SMILES | Arbovirus inh | YopH inh | Mtb growth | RecA intein inh | Mtb bLac sens | others
COc1ccc(N(CC(=O)NC2CCCCC2)C(=O)c2snc(C(N)=O)c2N)cc1 | nt | nt | nt | -1.6 | 1
O=C(Oc1ccc(-c2ccccc2)cc1)N1CCOCC1 | 5 | -158 | 2% | 3.2 | 10
O=C(NC(=S)Nc1ccc(S(=O)(=O)N2CCCC2)cc1)c1cccs1 | 0 | -19 | 3% | -1.0 | 5
Cc1ccc(NC(C)C(=O)N/N=C/c2c[nH]c3ccccc23)cc1 (stereo not given) | 1 | -29 | 1% | 0.2 | 0
CC(NC(=O)CNC(=S)N(Cc1ccccc1)Cc1cccnc1)c1ccccc1 (stereo not given) | 3 | nt | -2% | -3.6 | -1
Cc1cc(C(F)F)n2ncc(C(=O)NCc3ccccc3C(F)(F)F)c2n1 | -12 | -50 | -10% | -1.6 | -10
CCCOP(=O)(c1ccc(N(C)C)cc1)C(O)c1ccc(Br)cc1 (stereo not given) | nt | nt | nt | 0.4 | -7
CCC(NC(=O)C1C2C=CC(C2)C1C(=O)O)c1ccc(C)cc1 (stereo not given) | nt | nt | nt | 0.3 | 2
CC1(C)OC(=O)C(=CNC(=O)c2c(F)cccc2F)C(=O)O1 | -1 | nt | 1% | nt | 0
CN(C1CC(C)(C)NC(C)(C)C1)S(=O)(=O)CC12CCC(CC1=O)C2(C)C (stereo not given) | nt | nt | -5% | -0.7 | 1
COc1ccc(C(=O)NCC(C)(C)CNC(=O)c2ccc(OC)cc2)cc1 | nt | nt | nt | 2.2 | 38
Cc1cccc(C2=NC(C(F)(F)F)(C(F)(F)F)c3c(n(-c4ccc(F)cc4)c(=O)[nH]c3=O)N2)c1 | 6 | -21 | -9% | -3.1 | 3

Filtered by structure: the compounds so far with a halogen.
SMILES | Arbovirus inh | YopH inh | Mtb growth | RecA intein inh | Mtb bLac sens | others
Cc1cc(C(F)F)n2ncc(C(=O)NCc3ccccc3C(F)(F)F)c2n1 | -12 | -50 | -10% | -1.6 | -10
CCCOP(=O)(c1ccc(N(C)C)cc1)C(O)c1ccc(Br)cc1 (stereo not given) | nt | nt | nt | 0.4 | -7
CC1(C)OC(=O)C(=CNC(=O)c2c(F)cccc2F)C(=O)O1 | -1 | nt | 1% | nt | 0
Cc1cccc(C2=NC(C(F)(F)F)(C(F)(F)F)c3c(n(-c4ccc(F)cc4)c(=O)[nH]c3=O)N2)c1 | 6 | -21 | -9% | -3.1 | 3

Back to the main list, repeating the two entries before the break.
SMILES | Arbovirus inh | YopH inh | Mtb growth | RecA intein inh | Mtb bLac sens | others
COc1ccc(C(=O)NCC(C)(C)CNC(=O)c2ccc(OC)cc2)cc1 | nt | nt | nt | 2.2 | 38
Cc1cccc(C2=NC(C(F)(F)F)(C(F)(F)F)c3c(n(-c4ccc(F)cc4)c(=O)[nH]c3=O)N2)c1 | 6 | -21 | -9% | -3.1 | 3
COc1ccc2[nH]c(C(=O)N3CCCN(Cc4ccc(F)cc4)CC3)cc2c1 | nt | nt | -10% | 2.5 | -11
C/C(CC(=O)Nc1ccccc1F)=N\NC(=O)Cc1ccc(Cl)cc1 | -9 | nt | -5% | 3.6 | 2
Cc1nn(C)c(Cl)c1NC(=O)OCc1ccc(F)cc1 | 0 | -33 | -7% | -3.1 | -19
Cc1ccc(CCN2CC(C(=O)NCCCOC(C)C)CC2=O)cc1 (stereo not given) | 7 | -4 | -7% | -0.3 | 2
C=CCOc1cccc(C(=O)N2CCCC(Nc3ccc4c(c3)OCCO4)C2)c1 (stereo not given) | nt | nt | nt | 0.4 | -13
CCn1c2ccccc2c2cc(NC(=O)c3ccc(=O)oc3)ccc21 | nt | nt | 2% | -14 | -2
O=C(c1ccc2c(c1)OCO2)N1CCC2(CC1)Oc1ccc(F)cc1C(=O)C21CC(c2cccnc2)=NO1 (stereo not given) | nt | nt | 3% | 0.0 | -6
COc1ccc(C2(CNC(=O)c3cccs3)CCOCC2)cc1 | 1 | nt | 8% | -2.3 | 5
Cc1c(N)c(C(C)(C)C)cc(C(C)(C)C)c1[N+](=O)[O-] | 1 | -11 | 0% | 1.5 | 9
COC(=O)CCC(=O)Nc1cccc(C(=O)Nc2cccc(Cl)c2)c1 | 5 | -39 | 4% | -0.8 | 2
O=C(NCC1CCCO1)c1cccc(NC(=O)c2ccc(Br)cc2)c1 (stereo not given) | nt | nt | nt | 1.8 | ?
NC(=O)C1(NC(=O)[C@@H]2CC3(CC(c4cccc(NC(=O)[C@@H]5CCC(=O)N5)c4)=NO3)CN2C(=O)Cc2ccc(Cl)cc2)CC1 (stereo not given in full) | 1 | -1 | -11% | 0.6 | -5
C/[N+]([O-])=C/c1c(OCc2ccccc2)ccc2ccccc12 | nt | nt | nt | -4.6 | 11
CN(CCOc1ccc(C=C2C(=O)NC(=O)NC2=O)cc1)c1ccccn1 | -3 | nt | 3% | -1.2 | 75
O=C(CN1CCN(c2ccccn2)CC1)NCc1cccs1 | 5 | -6 | -12% | 0.2 | -12
COc1ccc(-n2cc(-c3ccc(OC(F)F)cc3)[n+]3c2CCCCC3)cc1 | 0 | nt | 10% | -1.4 | -1
COc1ccc(S(=O)(=O)Nc2c(C)n(C)n(-c3ccccc3)c2=O)c(Cl)c1Cl | nt | nt | nt | -2.8 | 4
COc1cccc(N(C(=O)c2cnccn2)C(C(=O)NC2CCCCC2)c2ccc(Cl)cc2)c1 (stereo not given) | -17 | -11 | -7% | 3.8 | -12
COc1ccc(-c2nc(N)ncc2Oc2ccccc2Br)c(O)c1 | -8 | -52 | -2% | -16 | 1
Cc1ccc(Cl)cc1N1CCN(S(=O)(=O)c2ccc3c(c2)CC(=O)N3C)CC1 | nt | nt | nt | 3.3 | 5
CCCCCN(C(=O)CCC(=O)OCC(=O)N1C(C)CCCC1C)c1c(N)n(CCCC)c(=O)[nH]c1=O (stereo not given) | nt | nt | nt | 1.0 | -15
CC1(C)NC(=O)N(CC(=O)OCC(=O)Nc2cccc(F)c2)C1=O | -2 | -13 | -4% | 1.6 | 4
NC(=O)c1nsc(C(=O)N(c2ccccc2)C(C(=O)NC2CCCC2)c2cccs2)c1N (stereo not given) | nt | nt | nt | 0.0 | -1
COc1ccccc1NC(=S)N(CCc1ccc(OC)c(OC)c1)Cc1ccccn1 | 3 | nt | 1% | 1.8 | 4
COc1ccc(C(=O)C[n+]2ccc3c(c2)nc(-c2ccccc2)n3C)cc1 | 7 | -1 | 78% | 1.0 | 86
O=C(N/N=C/c1cccnc1)c1ccc(Cn2cc([N+](=O)[O-])cn2)o1 | 3 | nt | 2% | -0.1 | -14
CC1CCCCC1NC(=O)Cc1ccc(S(=O)(=O)N2CCOCC2)s1 (stereo not given) | nt | nt | nt | -1.2 | -7
O=C(CSc1ccccn1)N1CCN(S(=O)(=O)c2ccc(Cl)cc2)CC1 | nt | nt | nt | -4.2 | 2
Cc1cccc(C)c1NC(=S)N/N=C/c1ccccc1C(=O)O | nt | nt | -12% | 1.5 | -2
CCCn1c(SCC(=O)Nc2ccc3c(c2)OCCO3)nnc1-c1ccco1 | -5 | -24 | 3% | -0.5 | 3
O=C1C2Sc3[nH]c(=O)sc3C(c3ccccc3)C2C(=O)N1c1ccc(Cl)cc1 (stereo not given) | 6 | -14 | -1% | nt | -8
O=[N+]([O-])c1cccc(NC(=S)NCCc2ccccc2)c1 | 0 | -16 | 28% | 5.9 | 6
CCN1CCN(Cc2cc(OC)c(OC)cc2[N+](=O)[O-])CC1 | 8 | -9 | 0% | 2.8 | ?
Cc1cccc(-n2c(=O)c3ccccc3n3c(=S)[nH]nc23)c1C | nt | nt | nt | -1.9 | 2
CC(C)c1nc(SCC(=O)Nc2cccc(C(F)(F)F)c2)c2c(=O)n(C)c(=O)n(C)c2n1 | -6 | -26 | -2% | -2.0 | 0
O=C(NCCCNC(=O)c1cncc(O)c1)c1cncc(O)c1 | 21 | nt | 0% | -5.4 | 1
Cc1ccc(C(=O)OCC(=O)Nc2ccc3c(c2)OCO3)o1 | -2 | 31 | 0% | -0.5 | -12 | Arbovirus inh repeat=-1
COC(=O)[C@@H](Cc1c[nH]c2ccccc12)NC(=O)CCC(=O)c1ccc(F)cc1 | nt | nt | nt | 1.8 | 0
C/C(=N\NC(=O)CC#N)c1cc2ccccc2oc1=O | -16 | -22 | 8% | 86* | 12
OCCCN1c2ccccc2Nc2nnc(-c3ccccc3)cc21 | -15 | -20 | 9% | 2.1 | 78
O=C(C1CCC(CNS(=O)(=O)c2cccc3nsnc23)CC1)N1CC=C(c2ccccc2)CC1 (stereo not given) | -7 | -50 | 6% | 2.0 | -9
Cc1ccsc1C1CC(=O)Nc2ccccc2S1 (stereo not given) | nt | nt | -1% | 0.8 | -1
O=C(COc1cc(Cl)c(Cl)cc1Cl)Nc1ccncc1 | -6 | 11 | 4% | 9.9 | -9
COc1ccc(OC)c(/C(C)=N/Nc2ccc(C(=O)O)cc2)c1 | 5 | nt | 11% | -2.2 | 32
CN(C)c1ccc(C(=O)OCC(=O)NCCNC(=O)COC(=O)c2ccc(N(C)C)cc2)cc1 | nt | nt | nt | 0.5 | -7
CSc1ncc(Cl)c(C(=O)Nc2ccccc2Cl)n1 | -3 | -25 | 10% | 2.1 | 2
O=C(Nc1ccc(Cl)cc1)Nc1nnc(-c2ccncc2)s1 | 3 | -23 | 9% | -2.2 | -5
Cc1cc(C)n(-c2ccc(C(=O)Nc3ccc(C)c(S(=O)(=O)N(C)C)c3)cc2)n1 | 8 | -27 | 26% | -5.3 | -4
CC(C)c1ccccc1NC(=O)c1ccco1 | 3 | -40 | 73% | 2.4 | -8
COc1ccc(NC(=O)CN2CCN(C(=O)c3ccco3)CC2)c(OC)c1 | 3 | -5 | -2% | -0.6 | 0
CCCn1c(/N=C/c2cc(OC)ccc2O)nc2ccccc21 | 2 | -14 | 0% | -0.7 | -4
CC1(C)CC(=O)C2=C(C1)NC1=C(C(=O)c3ccccc31)C2c1ccc(O)cc1 (stereo not given) | 9 | -25 | 8% | 6.6 | -3
COc1ccccc1CCN1C(=S)NC(C)(C)CC1(C)O (stereo not given) | 6 | -3 | 5% | 1.4 | 6
COc1cc(OC)c(C2Oc3nc(SC)nnc3-c3ccccc3N2C(C)=O)cc1OC (stereo not given) | 7 | 0 | -6% | -1.0 | -11 | Arbovirus inh repeat=5
CCn1nc(C(=O)N2CCc3ccccc3C2)c2ccccc2c1=O | -1 | -32 | -5% | 2.0 | -1
Cc1ccccc1N(CC(=O)NC1CCCCC1)C(=O)c1csnn1 | nt | nt | nt | 0.9 | 10
O=C1NC(C(=O)O)=CC(c2ccc([N+](=O)[O-])cc2)N1 (stereo not given) | nt | nt | -2% | -4.2 | -2
O=C(Nc1ccc(Cl)cc1)NC1CCCCC1Cc1ccco1 (stereo not given) | -23 | -31 | 5% | 2.3 | 3
CCOC(=O)c1cc2c(cn1)[nH]c1ccccc12 | 3 | -29 | -2% | 2.6 | 0
CCC(C)(C)n1nnnc1CN1CCC(c2nc3ccc(C)cc3[nH]2)CC1 | -29 | 4 | -3% | 0.1 | -6
Additional records follow:
SMILES | Arbovirus inh | YopH inh | Mtb growth | RecA intein inh | Mtb bLac sens | others
Cc1cccc(C(=O)NNC(=O)CN2C(=O)c3ccccc3C2=O)c1 | 1 | -17 | 40% | 0.0 | 0
Cn1nc(C(=O)N2CCN(c3ccc(Cl)cc3)CC2)c2c1-c1ccccc1S(=O)(=O)C2 | nt | nt | nt | 5.9 | 16
CCOC(=O)Cc1cc(=O)[nH]c(Nc2nc3ccccc3o2)n1 | -15 | -35 | 33% | 17 | 7
CCOC(=O)c1c(C)n(CC(O)c2ccccc2)c2ccc(O)cc12 (stereo not given) | 12 | -4 | -3% | -1.0 | -1
CCn1ncc(C2=NOC(C(=O)N3CCC(C(N)=O)CC3)C2)c1C (stereo not given) | 10 | nt | -8% | -0.1 | -2
CC(=O)Nc1ccc(S(=O)(=O)Nc2ccc3c(c2)C(=O)OC3)cc1 | -3 | nt | -11% | -0.4 | 0
Cc1cc(C)nc(N(C#N)CCOc2ccc(Cl)cc2)n1 | -9 | -12 | -5% | -1.7 | -6
O=C(CSc1nc2[nH]ncc2c(=O)[nH]1)Nc1ccccc1C(F)(F)F | nt | nt | nt | -1.1 | -2
Cc1c(C(=O)NCCCN2CCOCC2)oc2c1C1(CCC2)SCCS1 | -2 | -30 | 6% | 2.2 | 0
CC(C)[C@H](NC(=O)[C@H](Cc1ccccc1)n1c(=O)[nH]c2ccccc2c1=O)C(=O)N1CCC[C@@H]1C(=O)O | nt | nt | nt | 2.9 | -4
N/C(=N\c1nc(C(F)(F)F)cc(=O)[nH]1)Nc1ccc(Cl)cc1 | -6 | -38 | 17% | 13 | 7

Source: PubChem (several laboratories)

This is a subset (hit frequency here may not be typical).
